Mtb growth – Confirmatory growth inhibition assay against Mycobacterium tuberculosis H37Rv, potency (AID 1949); one-dose inhibition, % at 10 µg/mL; IC50 in µg/mL for titrated hits; 100,000 compounds, 1.6% hits; most inactive calls were filed without a number and no value below 0 was filed;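 active means confirmed in a dose series; inconclusive means about 50% or more but not retested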;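 further: bacteria grown 7 days with compound before Alamar blue readout; 0% = untreated bacteria and 100% = reference antibiotic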
* marks the source's active call; other numbers are inactive results; i = inactive; ? = inconclusive.

CCn1c(COc2cccc(C)c2C)nnc1SCc1ccc(Cl)c(Cl)c1
  Mtb growth: i

COc1cc(C=O)ccc1OC(=O)c1cn(CCC#N)nc1-c1cccs1
  Mtb growth: 0.7%

O=C(Nc1ccon1)c1cccc(C(F)(F)F)c1
  Mtb growth: i

CCOC(=O)c1c(C)n(C)c2ccc(OC(=O)NC(=O)c3ccccc3)cc12
  Mtb growth: i

Cc1ccc(S(=O)(=O)Nc2ccc(O)c(Br)c2)cc1
  Mtb growth: i

CCCc1nc2c(sc3nc4c(cc32)COC(C)(C)C4)c(=O)n1CC1CCCO1 (stereo unspecified)
  Mtb growth: i

C=C1C2(C(=O)Nc3ccccc3OC)CCC(C2)C1(C)C (stereo unspecified)
  Mtb growth: i

COc1ccc(-c2csc3[nH]c(=S)n(Cc4ccccc4)c(=O)c23)cc1OC
  Mtb growth: 1.4%

Cc1cc(C(=O)NCc2cccs2)no1
  Mtb growth: i

Cc1cc(Br)ccc1NC(=O)c1sc2ccccc2c1Cl
  Mtb growth: i

Brc1cccc(CN2CCNCC2)c1
  Mtb growth: i

C=CCN1C(=O)C(O)(CC(=O)c2c(C)n[nH]c2C)c2cc(Br)ccc21 (stereo unspecified)
  Mtb growth: i

O=C(/N=C1/NC(=O)C(F)(C(F)(F)F)S1)NC1CCCCC1 (stereo unspecified)
  Mtb growth: i

O=S(=O)(c1cccc2nsnc12)N1CCN(Cc2ccccc2)CC1
  Mtb growth: 5.6%

Cc1ccc2cccc(OC(=O)c3cccc(Br)c3)c2n1
  Mtb growth: i

CCOc1ccc2cc(S(=O)(=O)N3CCN(c4ccc(F)cc4)CC3)ccc2c1
  Mtb growth: 2.8%

COC(=O)c1ccc(/C=C/C(=O)c2cccs2)cc1
  Mtb growth: 29.1µg/mL*

Cc1cc(C)cc(OCC(=O)Nc2nc(-c3ccc(S(=O)(=O)N4CCOCC4)cc3)cs2)c1
  Mtb growth: i

Cc1ccc(N(CC(=O)Nc2ccccc2C(=O)NC(C)C)S(=O)(=O)c2ccccc2)cc1Cl
  Mtb growth: i

CNC(=O)NC1CCCc2ccccc21 (stereo unspecified)
  Mtb growth: i

CCn1c(SCC(=O)Nc2cccc(C(F)(F)F)c2)nnc1C(C)NC(=O)c1ccccc1 (stereo unspecified)
  Mtb growth: i

NC(=O)COc1ccc(NC(=O)CCc2ccccc2)cc1
  Mtb growth: i

CCOC(=O)COc1c(Cl)cc(/C=C(/C#N)c2nc3ccc(OC)cc3[nH]2)cc1Cl
  Mtb growth: 0.2µg/mL*

COCCCNC(=O)c1c(NC(=O)c2oc3ccccc3c2C)sc2c1CCCC2
  Mtb growth: i

CCOc1ccc(OCCCCNC(C)(C)C)cc1
  Mtb growth: i

Looked up by compound from the list above, 3 records:
CCOc1ccc2cc(S(=O)(=O)N3CCN(c4ccc(F)cc4)CC3)ccc2c1
  Mtb growth: 2.8%

Cc1ccc(N(CC(=O)Nc2ccccc2C(=O)NC(C)C)S(=O)(=O)c2ccccc2)cc1Cl
  Mtb growth: i

COC(=O)c1ccc(/C=C/C(=O)c2cccs2)cc1
  Mtb growth: 29.1µg/mL*

Other structures follow:
COc1c(Cl)ccc(Cl)c1C(=O)Nc1cccc(C)c1
  Mtb growth: 13.6%

Cc1ccc(-c2n[nH]c(=S)n2N=Cc2ccccc2OCC(=O)O)cc1
  Mtb growth: i

COc1cccc(NC(=O)C(C)Sc2ccc(C)cc2)c1 (stereo unspecified)
  Mtb growth: 2.1%

CC(C)NC(=O)C(=O)NCCN1CCN(S(=O)(=O)c2ccccc2)CC1
  Mtb growth: 0.3%

O=C(NCC1CCNCC1)c1ccncc1
  Mtb growth: i

O=C(NNC(=O)c1cc(-c2ccco2)nc2ccccc12)NC1CCCCC1
  Mtb growth: i

Cc1cc2nc(SCC(=O)Nc3ccc(F)c(Cl)c3)[nH]c2cc1C
  Mtb growth: 1.5%

C=C(C)Cn1c(C(O)c2ccccc2)nc2ccccc21 (stereo unspecified)
  Mtb growth: i

CCOc1ccccc1N(CC(=O)Nc1ccc(Br)c(C)c1)S(C)(=O)=O
  Mtb growth: i

COc1ccccc1C(=O)NC(=S)Nc1ccccc1C(=O)O
  Mtb growth: i

CCc1nnc(NC(=O)c2ccc3c(c2)OCO3)s1
  Mtb growth: i

COC(=O)CSc1ccccc1C(=O)OC
  Mtb growth: i

CN(C(=O)C12CC3CC(CC(C3)C1)C2)C1(C)CCS(=O)(=O)C1 (stereo unspecified)
  Mtb growth: i

O=C(O)C1CCCCC1C(=O)N1CCN(C(c2ccccc2)c2ccccc2)CC1 (stereo unspecified)
  Mtb growth: i

CCCCCC(C)NC(=O)c1ccc(OCC)cc1 (stereo unspecified)
  Mtb growth: i

CCCCc1ccc(NC(=O)c2c(C)noc2C)cc1
  Mtb growth: i

O=C1CCCc2c1[nH]c1ccc(CN3CCCCC3)cc21
  Mtb growth: i

COc1cc2c(cc1NC(=S)Nc1ccccc1C)oc1ccccc12
  Mtb growth: i

COc1cc([N+](=O)[O-])ccc1NC(=S)N1CCC(Cc2ccccc2)CC1
  Mtb growth: i

O=C(Nc1ccc(S(=O)(=O)N2CCCC2)cc1)c1ccc2c(c1)OCO2
  Mtb growth: 3.0%

CN(Cc1ccccc1)S(=O)(=O)c1ccc(Br)c2ccccc12
  Mtb growth: 1.7%

CCN(CC)Cc1c(O)c(Cl)cc2c(C)c(C)c(=O)oc12
  Mtb growth: i

Cc1ccc(C(=O)Nc2ccc(C(=O)N3CCCCC3)cc2)cc1
  Mtb growth: i

O=C(c1ccc([N+](=O)[O-])cc1)c1cccs1
  Mtb growth: 1.9%

CCOc1cc(CNCC2CCCN2CC)cc(Cl)c1OCC(N)=O (stereo unspecified)
  Mtb growth: i

CCOC(=O)CCC(NC(=O)c1ccc(Br)cc1)C(=O)OCC (stereo unspecified)
  Mtb growth: 1.2%

Cc1ccc(-c2nnc(Nc3cccc(O)c3)c3ccccc23)cc1S(=O)(=O)NC(C)(C)CO
  Mtb growth: i

O=C(Nc1ccc(Cl)cn1)c1ccc(-c2cc(Cl)ccc2Cl)o1
  Mtb growth: 0.1%

CC1CCc2cc(F)ccc2N1C(=O)C12CCC(c3nc(C#N)c(C#N)nc31)C2(C)C (stereo unspecified)
  Mtb growth: ?

COC(=O)c1ccc(NC(=O)CSc2nnc(C(NC(=O)c3ccccc3)C(C)C)n2C)cc1 (stereo unspecified)
  Mtb growth: i

COc1cccc2cc(C(=O)Nc3ccccc3)c(=O)oc12
  Mtb growth: i

O=C1CC(c2ccc(S(=O)(=O)N3CCOCC3)cc2)CN1 (stereo unspecified)
  Mtb growth: i

CC(=O)C(C(=O)c1ccccc1)C1c2ccccc2S(=O)(=O)c2ccccc21 (stereo unspecified)
  Mtb growth: i

O=C1c2cccc3cccc(c23)C(=O)N1OS(=O)(=O)c1ccc2[nH]c(=O)[nH]c2c1
  Mtb growth: i

Cc1ccc(SCCC(=O)Nc2cccc([N+](=O)[O-])c2)cc1
  Mtb growth: 0.3%

CS(=O)(=O)N(CC(=O)NCCSc1ccccc1)c1cccc(Br)c1
  Mtb growth: i

Cc1cc(NC(=O)c2cnn3cccnc23)no1
  Mtb growth: i

CCCCNC(=O)c1ccc(NC(C)=O)c(Cl)c1
  Mtb growth: i

COc1ccc(OC)c(Nc2nnc(-c3cc4cccc(OC)c4oc3=O)s2)c1
  Mtb growth: i

CNC(=S)N1CCNC(=O)C1CC(=O)Nc1cc(Cl)ccc1C (stereo unspecified)
  Mtb growth: i

CC(C)C(=O)N1c2ccccc2NC2=C(C(=O)CC(C)(C)C2)C1c1cccc(Cl)c1 (stereo unspecified)
  Mtb growth: i

CCOc1ccc(C(=O)NC(=S)Nc2cccc(C(=O)O)c2)cc1[N+](=O)[O-]
  Mtb growth: i

COC(=O)c1cc(NC(=S)NC(=O)C(c2ccccc2)c2ccccc2)cc(C(=O)OC)c1
  Mtb growth: i

CCC(=O)Oc1ccc2c(=O)c(-c3ccc(OC)cc3)c(C)oc2c1
  Mtb growth: 5.9%

COC(=O)CN(c1ccc2c(c1)OCO2)S(C)(=O)=O
  Mtb growth: 1.0%

O=C1C(=O)N(Cc2ccccc2Cl)c2ccc(Cl)cc21
  Mtb growth: 9.36µg/mL*

CCN(Cc1ccccc1)C(=O)c1ccc(NC(C)=O)cc1
  Mtb growth: i

Cc1ccccc1-c1noc(CCC(=O)Nc2ccc(Cl)cc2)n1
  Mtb growth: i

O=C(COc1ccc(S(=O)(=O)NCCc2ccccc2)cc1)Nc1ccc(Cl)c(Cl)c1
  Mtb growth: i

CS(=O)(=O)N(CCc1ccccc1)CC(=O)NCc1ccc2c(c1)OCO2
  Mtb growth: i

O=C(CSc1nnc(-c2cccs2)n1-c1ccccc1)N1CCOCC1
  Mtb growth: i

COc1ccc(OC)c(S(=O)(=O)Nc2c(C(C)C)cccc2C(C)C)c1
  Mtb growth: i

CC(C)N(C(=O)CN1C(=O)C(=O)c2ccccc21)c1ccccc1
  Mtb growth: i

CC(=O)OC1=C(C)C(c2ccccc2)N(C(C)=O)C(c2ccccc2)C1C (stereo unspecified)
  Mtb growth: i

CCOC(=O)c1c(-c2ccc(OCC)cc2)csc1NC(=O)c1ccco1
  Mtb growth: i

O=C(CCC1CCCC1)NCCCN1CCOCC1
  Mtb growth: i

COC(=O)COc1ccc(S(=O)(=O)N2CCN(c3cc(Cl)ccc3C)CC2)cc1
  Mtb growth: ?

C=C(C)Cn1c(SCC(N)=O)nc2ccc(I)cc2c1=O
  Mtb growth: i

O=c1c2c(n3cnnc3n1Cc1ccccc1)-c1ccccc1CC21CCCC1
  Mtb growth: i

CCOC(=O)/C(C#N)=C/C1=Cc2c(OC)c3ccccc3n2C1=O
  Mtb growth: i

CN(CC(=O)N(Cc1ccccc1)Cc1ccccc1)S(=O)(=O)c1ccc(F)cc1
  Mtb growth: 2.5%

COC(=O)c1c(NC(=S)Nc2cccc(NC(C)=O)c2)sc(C)c1C
  Mtb growth: i

C=CCOc1c(Cl)cc(C2NC(=O)NC(C)=C2C(=O)Nc2ccccc2)cc1OCC (stereo unspecified)
  Mtb growth: i

CCN(c1ccccc1)S(=O)(=O)c1ccc(OC)c(OC)c1
  Mtb growth: i

CCN(CC)C(=O)CSc1nc2ccccc2c(=O)n1-c1ccc(Br)cc1
  Mtb growth: i

COc1ccc(C2CC(c3ccc(F)cc3)Nc3nc(N)nn32)cc1 (stereo unspecified)
  Mtb growth: i

O=C(NCc1ccco1)c1ccc2c(c1)C(=O)N(Cc1ccccc1)C2=O
  Mtb growth: i

CC(C)c1nnc(NC(=O)CSc2nncn2C)s1
  Mtb growth: i

COc1ccc(NC(=O)C2=C(C)NC3=C(C(=O)CC(c4ccc(OC)c(OC)c4)C3)C2c2cccc(F)c2)cc1 (stereo unspecified)
  Mtb growth: 1.7%

COc1ccc(N2CCN(S(=O)(=O)c3cc(OC)ccc3OC)CC2)cc1
  Mtb growth: i

CCOC(=O)c1cnc(SC2CC(=O)N(c3ccccc3)C2=O)nc1N (stereo unspecified)
  Mtb growth: i

Cc1nn(-c2cc(N3CCNCC3)ccc2[N+](=O)[O-])c(=O)c2ccccc12
  Mtb growth: i

O=C(NC12CC3CC(CC(C3)C1)C2)c1cccc(C(=O)NC23CC4CC(CC(C4)C2)C3)c1
  Mtb growth: i

CC1(C)C(=O)C2(CCCCC2)C(=O)OC1c1ccc(F)cc1 (stereo unspecified)
  Mtb growth: i

Cc1nnc(NCc2ccccc2)n(N)c1=O
  Mtb growth: i

O=C(c1ccc(Cl)c(F)c1F)N1CCCC1
  Mtb growth: i

Cc1ccccc1-n1c(O)c(/C=C2\C=Nc3ccccc32)c(=O)n(-c2ccccc2C)c1=O
  Mtb growth: 0.2%

C/C(=N\N=C1\NC(=O)C(Cc2ccc(C)cc2)S1)c1ccccc1 (stereo unspecified)
  Mtb growth: 41.0%

COC(=O)COc1ccc(S(=O)(=O)N2CCOCC2)cc1C
  Mtb growth: i

O=C(NC(=S)Nc1ccc(Cl)cc1)c1ccc(Cl)cc1Cl
  Mtb growth: i

O=C(Nc1ccccc1C(=O)N1CCOCC1)c1ccc(-c2ccccc2)cc1
  Mtb growth: i

CS(=O)(=O)N1CCN(c2ccccc2NC(=O)CC23CC4CC(CC(C4)C2)C3)CC1
  Mtb growth: 5.4%

O=C(C1CC1)N1CCN(c2cccc(C(F)(F)F)c2)CC1
  Mtb growth: i

CCC(=O)Nc1nnc(COc2ccc([N+](=O)[O-])cc2)s1
  Mtb growth: 8.3%

Oc1ccc(-c2csc(-c3cccnc3)n2)c(O)c1
  Mtb growth: i

Cc1ccc(C(=O)NC(=S)N2CCN(c3cc(C)ccc3C)CC2)cc1
  Mtb growth: ?

COC(=O)c1ccc(COC(=O)c2ccccc2NC(C)=O)cc1
  Mtb growth: i

COc1ccc(CNC(=O)c2ccccc2Sc2ccccc2C#N)cc1OC
  Mtb growth: 1.6%

CCOC(=O)c1ccc(N/C(N)=N/c2nc(C)cc(C)n2)cc1
  Mtb growth: 0.1%

Cc1cc(C)nc(NC(=O)CSc2nnnn2-c2ccccc2)n1
  Mtb growth: i

O=C(c1ccccc1)c1nnc(-c2ccccc2F)o1
  Mtb growth: i

O=C(NC1CC1)c1ccccc1N(Cc1ccccc1)S(=O)(=O)c1ccccc1
  Mtb growth: i

CCCCn1c(=O)n(Cc2ccccc2Cl)c2c1c(=O)n(C)c(=O)n2C
  Mtb growth: i

CSc1nsc(SCC(=O)N2CCc3ccccc32)n1
  Mtb growth: 12µg/mL*

Cc1cccc(NC(=S)NCc2cccnc2)c1C
  Mtb growth: i

Cc1ccc(C)c(S(=O)(=O)Nc2ccc3scnc3c2)c1
  Mtb growth: i

Cc1cc(OC(F)F)ccc1NC(=O)Nc1ccc2c(c1)OCO2
  Mtb growth: i

O=C(NCc1cccnc1)c1cc2ncc(Br)cn2n1
  Mtb growth: i

Cc1cc(C)c2c(N)c(C(=O)NCc3ccco3)sc2n1
  Mtb growth: i

CCc1c(C)c2ccc(OC(C)C(C)=O)c(C)c2oc1=O (stereo unspecified)
  Mtb growth: 31.9%

CCCC(=O)Nc1cccc(NC(=S)NC(=O)c2ccc(OC)cc2)c1
  Mtb growth: 0.6%

Cc1ccc(N2CCN(S(=O)(=O)c3ccc(C(C)C)cc3)CC2)cc1Cl
  Mtb growth: i

CNc1ccccc1C(=O)OCc1ccc(Br)cc1
  Mtb growth: 5.2%

CCc1ccccc1OCC(=O)Nc1cccc(OC)c1
  Mtb growth: 14.5%

COC(=O)c1cc(NC(=O)CSc2nnc(N)s2)ccc1Cl
  Mtb growth: i

Compound activity: PubChem, Southern Research Institute

An excerpt (hit frequency here may not be typical).
